StopGo RLuc: FMDV 2A StopGo reporter, Renilla signal | 120,000 compounds, 0.32% hits | Potency, µM (top dose mostly 57.5 µM), for the others: at the top dose signal change, negative = less light | HEK cells with a luciferase reporter of 2A StopGo recoding; active means well fitted falling curve with a large enough effect; inconclusive means small, poorly fitted or top-dose-only effect; inactive means no such curve, though single readings can be large or run the other way; also: nearly all actives have a fitted effect of over 55% in size; overnight with compound
2A firefly: lowers the firefly signal of an FMDV 2A StopGo reporter. Potency, µM (highest dose often 57.5 µM), for inactives: at the highest dose signal change, negative = less light. 120,000 compounds, 0.23% hits. HEK cells with a luciferase reporter of 2A StopGo recoding; active = well fitted falling curve with a large enough effect; inconclusive = small, poorly fitted or top-dose-only effect; inactive = no such curve, though single readings can be large or run the other way; also: nearly all actives have a fitted effect of over 60% in size; overnight with compound
Numbers without * were called inactive; ? = inconclusive; & = joins results of further samples; [ ] = remark or other dose. % is scaled to controls: 0 for no effect and ±100 for the full control effect; potency is read from the fitted curve at half-maximal effect. A portion of the library. The share of hits here may be higher or lower than overall.

structure	StopGo RLuc	2A firefly
Cc1ccc(C)c(S(=O)(=O)c2nnn3c2nc(N2CCOCC2)c2sccc23)c1	0%	7%
Cc1nc2ccccc2c(=O)n1-c1ccc(NC(=O)c2cccc([N+](=O)[O-])c2)cc1	-22%	7%
O/N=C1\CCCc2c1nc(-c1ccco1)n2O	11%	27%
Cc1cn2c(=O)cc(COc3ccccc3NC(=O)c3ccc(Cl)cc3)nc2s1	-17%	-18%
CC(=O)c1ccc(CN2CCCCC2)c(OC(C)C)c1	-9%	-14%
Cc1cc(N2CCC(C(=O)Nc3ccc(F)cc3F)CC2)n2nc(C)c(-c3ccc(Cl)cc3)c2n1	-5%	-14%
CCc1ccc(CNc2ncc(-c3cccc(OC)c3)n2C)cc1	-5%	0%
COC(=O)c1sc(=S)n(-c2ccccc2)c1C	41%	110%[activator]
CC(C)(C)N(Cc1cn(Cc2ccccc2)nn1)S(=O)(=O)c1ccc(F)cc1Br	?	?
CCc1ccc(C(=O)/C=C/c2ccc(O)cc2)cc1	30%[activator]	38%[activator]
COc1ccc(Cc2nc3ccc(C(=O)NCc4cc(Br)ccc4OC)cc3o2)cc1	13%	-11%
CCCOc1ccc(-c2nc(C#N)c(N3CCN(C(=O)c4cccs4)CC3)o2)cc1	1%	8%
COC(=O)[C@H](CC(C)C)N1Cc2nnn(Cc3ccccc3)c2-c2ccccc2S1(=O)=O	121%[activator]	1%
Cc1ccc(-c2nnc(Nc3cccc(O)c3)c3ccccc23)cc1S(=O)(=O)N1CCOCC1	13%	-8%
COc1ccc(C)cc1NC(=O)COCc1cc(-c2ccc(F)cc2)on1	75%[activator]	53%[activator]
CCn1cc2nc(SCc3cc(C)ccc3C)n(Cc3ccc(Cl)cc3)c(=O)c2n1	-2%	-9%
CC(C)CCNC(=O)CSCc1cnn(-c2ccccc2)c1-n1cccc1	14%	-11%
O=C(NC1CCCCCC1)c1nc(-c2ccc3cc[nH]c3c2)no1	19%	160%[activator]
Cc1ccc(-c2cc3c(=O)n(CC(=O)Nc4ccc(F)cc4C)ccn3n2)cc1	0%	5%
CCc1cc2c(=O)c(Oc3ccc(I)cc3)c(C(F)(F)F)oc2cc1OC(=O)c1ccc(Br)cc1	12%	6%
Cc1ccc(S(=O)(=O)Nc2nc3ccccc3nc2NCc2ccc3c(c2)OCO3)cc1C	4%	-6%
CCCN(CCC)C(=O)Cn1c(=O)n(-c2ccccc2)c(=O)c2c3c(sc21)CCCC3	-1%	-19%
COc1ccc(C(=O)Nc2ccc3oc(-c4ccccc4C)cc(=O)c3c2)cc1OC	6%	71%[activator]
CCC1CCCCN1S(=O)(=O)c1cc(-c2csc(C)n2)ccc1C (centres undefined)	?	?
O=S(CCN1CCC(n2cccc2)CC1)c1ccccc1 (centres undefined)	10%	0%

Gathered by group, the compounds so far with two or more sulfur atoms
structure	StopGo RLuc	2A firefly
Cc1ccc(C)c(S(=O)(=O)c2nnn3c2nc(N2CCOCC2)c2sccc23)c1	0%	7%
COC(=O)c1sc(=S)n(-c2ccccc2)c1C	41%	110%[activator]
CCC1CCCCN1S(=O)(=O)c1cc(-c2csc(C)n2)ccc1C (centres undefined)	?	?

Next part.
structure	StopGo RLuc	2A firefly
O=C(Nc1ccc2oc(-c3ccc(F)cc3)cc(=O)c2c1)c1cccs1	-2%	138%[activator]
Cc1ccc(C)c(N2CCN(C(=O)Cc3c(C(=O)O)c(C)cn3C)CC2)c1	1%	-7%
CCN(C(=O)CN1C(=O)c2ccccc2Sc2ccc(C(=O)OC)cc21)c1cccc(C)c1	7%	0%
COc1cc(OC)c(C2=CCN(C(=O)COc3ccc(C)cc3Br)CC2)c(OC)c1	-40%	3%
CCOC(=O)C1CCN(C(=O)c2ccc(C)c(NC(=O)c3nsc4ccccc34)c2)CC1	-11%	-8%
Cc1cccc(N2CCN(C(=O)C3CCN(C(=O)c4cc5sccc5n4C)CC3)CC2)c1C	-19%	?
CCc1ccc(Nc2nc3ccccc3c3nnc(C)n23)cc1	-12%	-14%
CCCc1cc(=O)[nH]c(SCc2nc(-c3ccc(C)cc3)no2)n1	-14%	-14%
COc1cc(NC(=O)N2CCC(CN3CCc4ccccc4C3)CC2)cc(OC)c1	-8%	-13%
Cc1ccc2c(c1)c1c(c(=O)n(Cc3ccccc3)c(=O)n1CC(=O)Nc1ccccc1F)n2C	-8%	-7%
CCCSc1oc(-c2ccco2)nc1S(=O)(=O)c1ccc(Cl)cc1	105%[activator]	-11%
Cc1ccccc1-c1nnc2sc(NC(=O)c3ccc(F)cc3)nn12	-16%	0%
CC(=O)c1cc2c(cc1NC(=O)Cn1c(Nc3cccc(F)c3)nc(C)cc1=O)OCO2	-7%	13%
O=C(NCCCc1nc2ccccc2n1Cc1ccccc1)C1CCCCC1	?	?
COc1ccc(NC(=O)CSc2nc(N3CCOCC3)c3c(c2C#N)CCCC3)c(OC)c1	-14%	-11%
O=c1oc2ccccc2c(NC2CCCC2)c1NS(=O)(=O)c1ccccc1	4%	8%
Cc1nn(-c2ccc3nnc(C)n3n2)c2c1C(c1cccc(OC(F)F)c1)CC(=O)N2 (centres undefined)	?	?
CN(CCCNC(=O)c1nc2ccccc2c(=O)[nH]1)C(=O)c1ccc(Br)cc1	-7%	0%
Cc1ccc2[nH]c(=O)c(CN(C)S(=O)(=O)c3ccc(Cl)cc3)cc2c1	-4%	-6%
COc1ccc(C(=O)N2CCN(C(=O)COc3ccccc3)CC2)cc1OC	1%	-3%
COC(=O)C1=C(CS(=O)(=O)c2cc(Cl)ccc2OC)NC(=O)NC1c1ccccc1 (centres undefined)	1%	2%
COc1ccc(C(=O)/C=C/c2ccc(SC)cc2)cc1	28%	57%[activator]
COc1ccc(C(=O)/C=C/c2ccccc2F)c(OC(=O)c2ccccc2C)c1	37%[activator]	?
CCCNC(=O)Cn1cccc1-c1nc(-c2ccc(F)c(Br)c2)no1	-6%	33%[activator]
CCCCc1ccc(Nc2nnc(SCC(=O)NC(C)C)s2)cc1	0%	46%[activator]

A section from further up, for reference:
structure	StopGo RLuc	2A firefly
CCCNC(=O)Cn1cccc1-c1nc(-c2ccc(F)c(Br)c2)no1	-6%	33%[activator]
CCCCc1ccc(Nc2nnc(SCC(=O)NC(C)C)s2)cc1	0%	46%[activator]

Going on with the list:
structure	StopGo RLuc	2A firefly
Cc1ccc(-c2nc(N3CCN(c4ccccc4Cl)CC3)c3ccccc3n2)cc1	12%	-13%
COc1ccc(Nc2nc(NCCO)c3nccnc3n2)cc1	35%[activator]	76%[activator]
O=C(Nc1ccc(F)cc1F)c1ccc2c(Cl)c3c(nc2c1)CCCC3	-4%	72%[activator]
CCc1ccc(NC(=O)Cc2nc(-c3c(N)n(C)c(=O)n(C)c3=O)cs2)cc1	-3%	14%
Nc1nonc1-c1nc2ccccc2n1CC(=O)Nc1cccc(Cl)c1Cl	29%	15%
NC(N)=N/N=C/c1c(Cl)cccc1Cl	6%&-6%	0%
Cc1oc2cc(OCC(=O)N3CCC(C(=O)O)CC3)ccc2c(=O)c1-c1ccc(Cl)cc1	-1%	-3%
CCc1c(C)nc2nncn2c1Nc1ccc(C(C)C)cc1	-6%	-25%
O=C(NCCN1CCOCC1)c1cc(-c2ccc(-c3ccccc3)cc2)nc2ccccc12	18%	203%[activator]
COc1cc(Cl)c(C)cc1NC(=O)CCn1c(=O)c2cccn2c2cccnc21	-14%	-16%
CCCc1nnc(NC(=O)Nc2ccc(F)cc2)s1	-3%	141%[activator]
COc1ccc(Cc2nc3c4cnn(-c5ccccc5Br)c4ncn3n2)cc1	7%	13%
CC(C)CCn1nc(C(=O)OCC#N)c2ccccc2c1=O	16%	23%
COC(=O)C(C)(NC(=O)CCC(=O)c1ccccc1)c1ccccc1 (centres undefined)	6%	3%
NC(=O)CNS(=O)(=O)c1cccc(C(=O)O)c1	0%	-3%
COc1ccc(CC(=O)Nc2cccc3ccc(C)nc23)cc1	17%	-3%
COc1cc(C2C3=C(CCCC3=O)OC3=C2C(=O)CCC3)cc(Br)c1OCC(=O)O	-6%	-3%
Cc1ccc(C)c(Cn2c3ccccc3c3cnn(CC(=O)NCCc4ccccc4)c(=O)c32)c1	-22%	53%[activator]
CCCCOc1ccc(C(=O)NCCS(=O)(=O)N2CCN(c3ccc(F)cc3)CC2)cc1	-12%	-16%
COc1ccc(C)cc1NC(=O)c1nnn(-c2c(C)cccc2C)c1C	1%	3%
CCCc1cc(=O)oc2cc(C)cc(OCC(=O)NCCCn3ccnc3)c12	1%	4%
CCOC(=O)c1ccc(NC(=O)C(CC)Sc2nc3ncccc3[nH]2)cc1 (centres undefined)	6%	-4%
CCOC(=O)CC(NC(=O)CCc1c(C)nc2cc(-c3ccccc3)nn2c1C)c1ccc(C)cc1 (centres undefined)	14%	?
CC(O)c1ccc(-c2ccc(CNCc3ccccn3)o2)cc1 (centres undefined)	3%	69%[activator]
O=[N+]([O-])c1cccc(S(=O)(=O)NCCNS(=O)(=O)c2cccc([N+](=O)[O-])c2)c1	34%[activator]	-19%
CN1CCN(C2=Nc3ccccc3Sc3ccc(Cl)cc32)CC1	-2%	-16%[11.5 µM]
COC(=O)c1nc2n(n1)C(c1ccc(C)cc1)C(C(=O)Nc1ccc(Cl)cc1)=C(C)N2 (centres undefined)	3%	8%
CCN(Cc1ccccc1)c1ccc(/C=N/NC(=S)Nc2cc(S(=O)(=O)N(C)C)ccc2C)cc1	-5%	1%
COc1cc(-c2noc(-c3ccc(NCCc4ccccc4)c([N+](=O)[O-])c3)n2)cc(OC)c1OC	-7%	30%[activator]
Cc1ccc(C2=CC(c3c(F)cccc3Cl)n3ncnc3N2)cc1 (centres undefined)	1%	27%
COC(=O)c1scc(-c2ccc(C)cc2)c1S(=O)(=O)Nc1cc(OC)c(OC)c(OC)c1	12%	-19%
CCN(CC)CCCNC(=O)CCc1c(C)n(CC)c2cc(-c3ccccc3OC)nn2c1=O	-6%	-15%
O=C(O)CC(C(=O)O)c1ccc(Cl)cc1 (centres undefined)	-5%	5%
COC(=O)c1ccc(NC(=O)COC(=O)c2cn(C)c3ccccc23)cc1	-24%	-27%
CC(C)(C)c1ccc(C(=O)N2CCCC(c3nc4c(nnn4Cc4cccc(F)c4)c(=O)[nH]3)C2)cc1 (centres undefined)	25%	-19%
CCCc1cc(=O)[nH]c(Nc2ccc(O)cc2C)n1	11%	9%
Cc1ccc(NC(=O)CCOc2ccccc2)cc1	30%[activator]	323%[activator]
CC1=C(c2ccc(Cl)cc2)S(=O)(=O)N=C1N1CCN(c2cccc(C)c2C)CC1	27%	24%
Cc1nnsc1C(=O)Oc1ccc(C(C)C)cc1	-11%	-14%
CCOC(=O)CSc1nc2c(sc3ccccc32)c(=O)n1Cc1ccc(C)cc1	-6%	-15%
Cc1cc(Br)ccc1NC(=O)CCn1cnc2c1c(=O)n(C)c(=O)n2C	4%	7%
Cc1[nH]c2ccccc2c1/C=C(/C#N)C(=O)NCCO	-1%	36%[activator]
CCOc1cc(C(c2c(C)[nH]n(-c3ccccc3)c2=O)c2c(C)[nH]n(-c3ccccc3)c2=O)ccc1O	-5%	5%
Cc1sc2ncn(CCC(=O)NCc3ccccc3CN(C)C)c(=O)c2c1C	-5%	-13%
CC(=O)Oc1cc2c(=O)c3ccccc3sc2cc1C	15%	111%[activator]
CCN(CC)CCNc1ccc(CO)c2sc3ccccc3c(=O)c12	?	-30%
Cc1cc(C)cc(NC(=O)CCc2ncc(-c3ccc(Cl)cc3)o2)c1	-3%	-1%
O=C1CCSc2ccc(C(=O)NO)cc2N1	19%	7%
CCOc1ccccc1NC(=O)CN1C=NS(=O)(=O)c2ccccc21	-12%	-19%
Cc1ccc(NC(=O)Cn2cc3c(n2)CCCCC3)cc1	50%[activator]	42%[activator]

(more compounds)
structure	StopGo RLuc	2A firefly
COc1cc(NC(=O)c2nn(C)c3c2COc2ccccc2-3)cc(OC)c1OC	31%[activator]	12%
NCc1ccc(Oc2ccc(C(F)(F)F)cc2)cc1	-2%	12%
O=C(COC(=O)c1cc(=O)c2ccccc2o1)Nc1ccc(F)cc1F	-3%	9%
N#Cc1ccccc1CNc1ccc(Cl)cc1F	8%	102%[activator]
C=CCn1c(N2CCCC(C)C2)nc2c1c(=O)n(C)c(=O)n2C (centres undefined)	-23%	-21%
Cc1cc(C=C(C#N)C#N)c(C)n1C1CC1	-3%	40%[activator]
COc1cc(C2C=C(C(=O)O)Nc3ncnn32)ccc1OCCC(C)C (centres undefined)	0%	16%
Cc1ccccc1Oc1nc2c(c(=O)n(C)c(=O)n2C)n1Cc1ccc(Br)cc1	-4%	13%
Cc1cc(C)c(C#N)c(SCc2cc(=O)oc3cc(C)c(O)cc23)n1	-22%	-8%
CCc1ccc(C(CN)c2c[nH]c3ccccc23)cc1 (centres undefined)	?	62%[activator]
O=C(CSc1nc2cc(Cl)ccc2s1)NCCc1ccccc1	-1%	14%
Cc1ccc(N(CC(=O)NCc2ccccc2C)S(=O)(=O)N(C)C)cc1	28%	5%
O=C(NCCc1ccccc1)c1ccc(Cn2c(SCc3ccccc3)nc3cccnc32)cc1	-6%	62%[activator]
CCOC(=O)CCCNC(=O)c1cc(-c2ccncc2)nc2ccccc12	0%	6%
COc1ccc(S(=O)(=O)NCC(c2ccc(N(C)C)cc2)N2CCOCC2)cc1 (centres undefined)	44%[activator]	-5%

Bioassay records: PubChem BioAssay, National Center for Advancing Translational Sciences (NCATS)
